MT1-MMP act inh: blockers of MT1-MMP proenzyme processing, primary screen, HT1080 RFP-PRO-GFP cells, GFP/RFP fluorescence; Matrix metalloproteinase-14 (Homo sapiens), P50281; 360,000 compounds, 0.061% hits; GFP/RFP ratio change, % at 20 µM; GFP/RFP ratio fluorescence, overnight; percent of plate control window, DMSO zero; AID 651647, 2012;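 active = GFP/RFP ratio change of at least 30% with cell ATP level not reduced by more than half and red fluorescence within 50% of control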; also: strong numbers were not always called active
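Assay system – RFP-PRO-GFP reporter HT1080 cells · Compound dosing – single dose of 20 µM compound, 1% DMSO final · Incubation – overnight compound exposure at 37 °C · Measure – GFP/RFP fluorescence ratio · Benchmarks – DMSO wells and RFP-L50D-GFP cells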
HIV Env fusion: inhibitors of HIV-1 Env-driven cell-cell fusion, primary screen, HeLa-JRFL effector, CEM21 target cells, luciferase; inhibition, % at 12.3 µM; 360,000 compounds, 1.1% hits;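 active = mean replicate inhibition score of at least 50 and every replicate individually at or above 50; inconclusive = only one of the two criteria met; inactive = mean below 50 and not all replicates reaching 50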;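 also: 0% = plate neutral controls and 100% = maraviroc near 300 nM; one replicate is shown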
CSC inhib: cancer stem cell viability inhibitors, primary screen, luminescence; 300,000 compounds, 1.1% hits; cancer stem cell-like cells viability; inhibition, % at 7.5 µM; AID 2717, 2010;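 active = mean at 75% or more and at least half the replicates too; inconclusive = mean and replicates disagree; tested in HMLE shEcad cells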;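 also: 0% = median of negative and 100% = median of positive control wells; the first replicate is given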
Rce1 inh: yeast Rce1p protease inhibitors, primary screen, biochemical, fluorescence, cell-free homogeneous | 290,000 compounds, 0.27% hits | yeast membranes, quenched prenylated peptide cleavage fluorescence | calls only | CAAX prenyl protease 2 (Saccharomyces cerevisiae (strain ATCC 204508 / S288c)), Q03530;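 active = fall in fluorescence gain of 50% or more versus controls, with final raw signal at or below 3038400; inconclusive = same 50% fall but final raw signal above 3038400; inactive = fall in fluorescence gain under 50%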;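 also: plate controls were neutral control wells for no effect and wells lacking membranes for full effect; tested at 10 µM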
Target sequence (Q03530 whole entry, looked up): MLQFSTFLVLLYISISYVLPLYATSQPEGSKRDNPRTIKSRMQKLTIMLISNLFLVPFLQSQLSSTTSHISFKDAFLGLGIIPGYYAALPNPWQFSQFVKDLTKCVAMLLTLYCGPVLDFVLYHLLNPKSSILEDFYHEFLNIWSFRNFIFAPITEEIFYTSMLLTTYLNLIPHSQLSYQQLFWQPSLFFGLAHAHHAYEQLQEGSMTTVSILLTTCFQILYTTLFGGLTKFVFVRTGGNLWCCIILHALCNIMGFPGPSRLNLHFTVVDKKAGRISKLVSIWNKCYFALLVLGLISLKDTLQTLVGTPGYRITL
PABP polyA inh: PABP poly(A) RNA binding inhibitors, primary screen, biochemical, fluorescence polarization, uHTS | Polyadenylate-binding protein 1 (Homo sapiens), P11940 | inhibition, % at 35 µM | AID 2014, 2009 | 290,000 compounds, 1% hits;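 active = 50% or more with normal probe brightness, or confirmed in later tests; inconclusive = above 50% with abnormal brightness, or retests that disagree; inactive = below 50% or failed in later tests; about a fifth of its hits are not listed in these tables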;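 also: calls also rest on retests at 20 µM and on dose response follow-up; controls were probe without protein and protein plus probe with vehicle; some compounds called inactive have numbers as strong as hits; many hits fall short of the cut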
Target sequence (P11940 whole entry, looked up): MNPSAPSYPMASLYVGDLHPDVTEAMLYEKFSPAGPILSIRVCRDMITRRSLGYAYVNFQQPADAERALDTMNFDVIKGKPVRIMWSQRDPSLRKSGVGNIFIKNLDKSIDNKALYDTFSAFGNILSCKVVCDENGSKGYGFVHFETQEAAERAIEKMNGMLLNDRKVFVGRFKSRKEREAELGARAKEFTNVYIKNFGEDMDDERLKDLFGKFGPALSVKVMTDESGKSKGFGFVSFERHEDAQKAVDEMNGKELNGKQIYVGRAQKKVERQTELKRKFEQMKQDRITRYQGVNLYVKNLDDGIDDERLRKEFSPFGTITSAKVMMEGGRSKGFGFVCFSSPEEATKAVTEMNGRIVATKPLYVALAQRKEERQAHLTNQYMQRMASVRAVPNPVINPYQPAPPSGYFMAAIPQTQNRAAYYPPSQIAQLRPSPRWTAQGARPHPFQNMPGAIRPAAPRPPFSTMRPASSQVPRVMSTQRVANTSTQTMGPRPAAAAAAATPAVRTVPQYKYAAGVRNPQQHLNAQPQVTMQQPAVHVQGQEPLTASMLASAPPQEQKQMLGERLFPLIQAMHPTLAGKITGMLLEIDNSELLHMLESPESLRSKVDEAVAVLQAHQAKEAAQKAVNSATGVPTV
eIF4H FP inh: human eIF4H binding inhibitors, primary screen, translation initiation inhibitor project, biochemical, uHTS, fluorescence polarization. Eukaryotic translation initiation factor 4H (Homo sapiens), Q15056. eIF4H fluorescence polarization binding assay. inhibition, % at 35 µM. 290,000 compounds, 0.94% hits;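 active = 50% or more with normal probe brightness, or confirmed in later tests; inconclusive = above 50% with abnormal brightness, or retests that disagree; inactive = below 50% or failed in later tests; about a fifth of its hits are not listed in these tables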;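 also: calls also rest on retests at 20 µM and on dose response follow-up; 0% = protein and probe with vehicle and 100% = probe without protein; strong numbers were not always called active; many hits fall short of the cut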
Yeast UUG start: modulators of yeast start codon fidelity, primary screen, whole organism, S. cerevisiae, single point, plate reader. S. cerevisiae UUG-firefly luciferase reporter, luminescence/redox ratio. activity score, % at 18.7 µM. 350,000 compounds, 0.13% hits;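 active = replicate mean at a twofold rise or more, about +100% in these data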;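 also: firefly luciferase made from a UUG start codon reports start codon fidelity; reporter light over untreated wells divided by growth signal over untreated wells; some hits fall short of that in this replicate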
eIF4H FP inh retest: further read-out of eIF4H FP inh, marked with its call; inhibition, %; compound at 20 µM; confirmation average;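 mean of two retest wells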
PABP polyA inh retest: also measured in PABP polyA inh; calls as there; inhibition, %; compound at 20 µM; confirmation repeats;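 mean of two retest wells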
MT1-MMP act inh RFP: recorded beside MT1-MMP act inh, whose call it bears; RFP signal change, %; measured here: RFP expression control read;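 0 = vehicle wells; hits needed this value within 50% of zero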
* = called active by the depositor; i = inactive; ? = inconclusive; · = not tested or not shown; & = joins results of further samples; [ ] = dose if it differs, or a comment.

SMILES | MT1-MMP act inh | MT1-MMP act inh RFP | HIV Env fusion | CSC inhib | Rce1 inh | PABP polyA inh | eIF4H FP inh | Yeast UUG start | others
Cc1nc(-c2ccccn2)sc1C(=O)Nc1ccc(F)cc1F | 4 | 4 | -28 | 3 | i | -5 | 1 | 5
CC(C)NC(=O)c1cc(C2CCCCN2C(=O)c2ccccc2)on1 (stereo not given) | 0 | 4 | -1 | · | · | · | · | -5
COc1ccc(CCNCC(O)COc2cccc(Br)c2)cc1 (stereo not given) | 3 | 6 | 13 | 50 | i | -2 | -2 | -1
O=C(CN1CCc2ccccc2C1)Nc1ccc(F)cc1F | -1 | 3 | 12 | -15 | i | -9 | -2 | -5
COc1cc(C(=O)NNC(=O)c2cccn2C)cc(OC)c1OC | -3 | -2 | -4 | -4 | i | · | · | -12
C[C@@H]1CN([C@@H](C)CO)C(=O)CCCn2nncc2CO[C@H]1CN(C)Cc1cccc2c1OCCCO2 | 2 | 5 | 11[16.7 µM] | · | · | · | · | -3&-1&-9
CCn1c(-c2ccccc2)ccc(C#N)c1=O | -2 | 1 | -188 | -3 | i | -8 | 7 | -1
Cc1ccc2[nH]c(=O)c(CN(Cc3ccccc3Cl)C(=O)N3CCOCC3)cc2c1 | 0 | -6 | -8 | -2 | i | 6 | -4 | 14
COc1ccccc1CNC(=O)CCCn1nc(C)c2c(C)n(-c3ccccc3)nc2c1=O | 1 | 0 | 1 | -18 | i | -2 | -12 | 1
C=CCn1cc(C(=O)OC)c(=O)c2cc(S(=O)(=O)N(CC)CC)ccc21 | 1 | -2 | · | -4 | i | -2 | 7 | 5
CCOC(=O)C(=Cc1ccc(F)cc1)C(=O)OCC | · | · | · | 96* | i | 9 | 1 | ·
CCC(C)[C@H]1CNCCN1CCc1cccc(F)c1 (stereo not given in full) | -6 | 4 | 29 | -7 | i | · | · | -22
Cc1noc(C)c1CN1C(=O)NC2(CCc3ccccc3C2)C1=O (stereo not given) | -3 | -3 | -62 | -20 | i | · | · | -21
O=C(COC(=O)c1ccc([N+](=O)[O-])s1)NCc1ccccc1 | 0 | 3 | · | -1 | i | 13 | -7 | -3
CCOC(=O)Cn1nnnc1CN(Cc1ccccc1)Cc1cc2cc(CC)ccc2[nH]c1=O | -6 | -13 | 47 | 3 | i | 11 | 2 | ·
COC(=O)c1ccc(C(=O)NC2CCCN(Cc3ccc(Cl)cc3)C2)nc1 (stereo not given) | 0 | -3 | 8 | -7 | i | 3 | -4 | 10
CC(=O)Nc1ccc(S(=O)(=O)NCC(=O)OC(C)c2ccccc2Cl)cc1 (stereo not given) | 0 | -3 | · | 7 | i | 3 | -2 | -7
COc1ccc(C(=O)Nc2nc3nc(-c4ccccc4)cc(=O)n3[nH]2)cc1 | 2 | 1 | -83 | · | · | 2 | 3 | -27
O=C(NCC1COc2ccccc2O1)c1ccco1 (stereo not given) | 2 | 5 | · | -7 | i | 11 | 6 | ·
Cc1nn(S(=O)(=O)c2ccc(Cl)cc2)c(C)c1S(=O)(=O)N1CCOCC1 | 0 | 7 | -4 | -18 | i | 5 | -2 | -11
C[C@@H]1CN([C@@H](C)CO)C(=O)Cc2cc(NC(=O)Nc3cccc4ccccc34)ccc2O[C@@H]1CN(C)Cc1ccc(C(F)(F)F)cc1 | 9 | -2 | -26 | 51 | · | · | · | 1
Clc1ccc(Cc2nnc(-c3cccs3)o2)cc1 | 11 | -2 | -39 | -17 | i | 12 | -1 | -2
C[C@H](NC(=O)[C@H]1N2C(=O)c3ccccc3C2SC1(C)C)C(=O)NCc1ccncc1 (stereo not given in full) | -2 | 3 | -3 | 4 | i | -1 | -2 | ·
CCOC(=O)C1CCCN(C(=O)c2ccc(Cl)c(S(=O)(=O)N3CCCCC3)c2)C1 (stereo not given) | 8 | -2 | 18 | 16 | i | 3 | 2 | -12
COC(=O)/C(=C/c1cccnc1)NC(=O)c1ccccc1 | -1 | 1 | -3 | -3 | i | -19 | 3 | ·
COC(C[C@H](O)C[C@@H](O)COCc1ccccc1)OC | 14 | 9 | -2 | · | i | -1 | 3 | -5
CC(=O)SCCC(=O)Nc1ccccc1 | -1 | -1 | -42 | -8 | i | -14 | -7 | -7
COC(=O)C1CCN(CC(=O)NC(=O)Nc2ccccc2F)CC1 | 0 | -2 | -8 | -2 | · | · | · | -7
CCc1ccc(/C=C2\SC(=S)N(CCCC(=O)Nc3nccs3)C2=O)cc1 | -3 | -1 | -2 | · | i | 16 | -5 | -32
CC1(C)C2CC[C@]3(C)C(CC=C4[C@@H]5C[C@@](C)(CO)CC[C@]5(C(=O)O)CC[C@]43C)[C@@]2(C)CC[C@@H]1O (stereo not given in full) | 5 | 5 | · | -8 | i | · | · | 0
O=S(=O)(Nc1nc2ccc(S(=O)(=O)N3CCCC3)cc2s1)c1ccc(F)cc1 | -5 | -2 | -105 | 10 | i | 1 | -11 | -23
O=C(NC(=S)NNC(=O)[C@H]1C[C@@H]1c1ccccc1)c1cccc(F)c1 | 0 | 3 | 6 | 18 | i | 1 | 16 | -5
CC(C)OCCCNC(=O)CNC(=O)c1cccs1 | 1 | 5 | 14 | · | i | 8 | -6 | -19
COc1ccc(-c2nc(-c3cccnc3)no2)cc1OC | -1 | 0 | -29 | -35 | i | 0 | -1 | 6
CCc1nnc(NC(=O)CSc2nnc(-c3cccnc3)n2CC)s1 | -3 | -2 | -60 | -2 | i | 6 | -9 | -22
COC(=O)c1ccccc1NC(=O)CNc1cc(Cl)ccc1N1CCOCC1 | -1 | -6 | · | 31 | i | 4 | 6 | -13
CC(=O)NC(c1ccccc1)c1nc(-c2ccc(Cl)cc2)cs1 (stereo not given) | -1 | -1 | -3 | · | · | · | · | 3
COC(=O)c1cn(C(=O)c2ccc3c(c2)OCO3)c2ccccc12 | 0 | 0 | -38 | · | · | · | · | -13
CC(C)(C)SCCNS(=O)(=O)c1ccc(F)cc1 | -2 | 1 | · | -7 | i | 2 | -8 | -6
O=C(Nn1c(O)c(C=C2N=c3ccccc3=N2)sc1=S)c1cccc(Cl)c1 | 6 | 6 | -12 | -9 | i | 38* | 66 | -17 | eIF4H FP inh retest=39;PABP polyA inh retest=55*
CCCC(=O)Nc1ccc(C(=O)NCc2ccccc2Cl)cc1 | 2 | 0 | · | -1 | i | -11 | -3 | 3
Cc1c(CN2CCCC(C)C2)c(O)n(CCO)c(=O)c1C#N (stereo not given) | -1 | 1 | -9 | -7 | i | ? | ? | ·
Cn1c(=O)c2sccc2n2c(CCCC(=O)NCc3ccc(F)cc3)nnc12 | 4 | 5 | 1 | -13 | i | 7 | 1 | -13
CCc1ccccc1N(CC(=O)Nc1cccnc1)S(=O)(=O)c1ccccc1 | 0 | 1 | -17 | 1 | i | 13 | -14 | 7
CCC(OC(=O)c1nsc(Cl)c1Cl)C(=O)NC(C)(C)C (stereo not given) | -2 | 1 | 4 | -15 | i | 7 | -16 | ·
O=C1CC(C(=O)Nc2ccc(O)c(C(=O)O)c2)C(c2ccccc2)O1 (stereo not given) | 4 | -1 | · | -13 | i | 19 | 7 | -18
N#CCSc1ccccc1NC(=O)COC(=O)CCNC(=O)c1ccc([N+](=O)[O-])cc1 | -21 | 8 | -33 | · | · | · | · | -7
C=CCOC(=O)Cn1cnc2c(sc3nc(C)cc(C)c32)c1=O | 2 | 3 | -4 | 1 | i | 12 | -2 | -13
CN1CCN(NS(=O)(=O)c2ccc(Cl)s2)CC1 | 7 | 8 | -34 | 4 | i | 0 | 7 | -4
O=C(NCc1cccnc1)c1ccc(COc2ccccc2Br)cc1 | -6 | -20 | 16 | 29 | i | -6 | -11 | ·
O=C(CCn1cnc2ccccc2c1=O)Nc1cccc(Cl)c1Cl | 4 | 2 | -8 | 14 | i | 0 | -4 | 2
CCN(c1ccccc1)S(=O)(=O)c1ccc(F)cc1 | -4 | -1 | -13 | -11 | i | -10 | -7 | -6
COc1cccc(C(=O)NCC(=O)N/N=C/c2cccc(OC(=O)c3ccc([N+](=O)[O-])cc3)c2)c1 | 5 | 4 | 2 | -4 | i | 2 | -10 | ·
CCC(=O)N1CCc2cc(S(=O)(=O)NCCC(=O)NCc3ccc(F)cc3)ccc21 | 2 | 2 | 0 | -19 | i | 3 | -5 | 8
Cc1ccc(OCC(=O)Nc2ccccc2Sc2ccc(Cl)cc2)c([N+](=O)[O-])n1 | -7 | -10 | 44 | 4 | i | 11 | -1 | -7
COc1ccc(-c2onc3ccc(Br)cc23)cc1 | -19 | -4 | · | 6 | i | 9 | ? | -14
CCOC(=O)c1cnc2c(ccc3ccccc32)c1Cl | -1 | -1 | -21 | 10 | i | 3 | -4 | -15
COC(=O)c1nc(-c2ccccc2)oc1N(C)C | 2 | 3 | -26 | 1 | ? | 7 | -5 | -17

Part of the list above in order of formula weight, descending:
SMILES | MT1-MMP act inh | MT1-MMP act inh RFP | HIV Env fusion | CSC inhib | Rce1 inh | PABP polyA inh | eIF4H FP inh | Yeast UUG start | others
C[C@@H]1CN([C@@H](C)CO)C(=O)CCCn2nncc2CO[C@H]1CN(C)Cc1cccc2c1OCCCO2 | 2 | 5 | 11[16.7 µM] | · | · | · | · | -3&-1&-9
COc1cccc(C(=O)NCC(=O)N/N=C/c2cccc(OC(=O)c3ccc([N+](=O)[O-])cc3)c2)c1 | 5 | 4 | 2 | -4 | i | 2 | -10 | ·
N#CCSc1ccccc1NC(=O)COC(=O)CCNC(=O)c1ccc([N+](=O)[O-])cc1 | -21 | 8 | -33 | · | · | · | · | -7
O=C(Nn1c(O)c(C=C2N=c3ccccc3=N2)sc1=S)c1cccc(Cl)c1 | 6 | 6 | -12 | -9 | i | 38* | 66 | -17 | eIF4H FP inh retest=39;PABP polyA inh retest=55*
CC(=O)Nc1ccc(S(=O)(=O)NCC(=O)OC(C)c2ccccc2Cl)cc1 (stereo not given) | 0 | -3 | · | 7 | i | 3 | -2 | -7
O=C(NC(=S)NNC(=O)[C@H]1C[C@@H]1c1ccccc1)c1cccc(F)c1 | 0 | 3 | 6 | 18 | i | 1 | 16 | -5
CCN(c1ccccc1)S(=O)(=O)c1ccc(F)cc1 | -4 | -1 | -13 | -11 | i | -10 | -7 | -6
CCOC(=O)C(=Cc1ccc(F)cc1)C(=O)OCC | · | · | · | 96* | i | 9 | 1 | ·
COC(=O)c1nc(-c2ccccc2)oc1N(C)C | 2 | 3 | -26 | 1 | ? | 7 | -5 | -17
CC(=O)SCCC(=O)Nc1ccccc1 | -1 | -1 | -42 | -8 | i | -14 | -7 | -7

Screening data (PubChem)

The order is random. About 2.9% of those tested had a hit in this group.
